Biofilm kill mix = mixtures killing C. albicans biofilm; C. albicans biofilm persisters + clotrimazole, fluorescence viability; primary screen in compound mixtures of four per well; inhibition, % at 7.6 µM; 0.02% of 120,000 active; AID 1242;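 active means inhibition above 30.3% in the primary screen of four-compound pools, then above 30% when the compound was retested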;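 further: compounds exposed to preformed 24 h biofilms for 48 h; the number belongs to the whole pool; some results filed as inactive read as strong as hits; inactives centre near 12; 0% = biofilm with clotrimazole alone and 100% = kill control; retested singly at about 60 µM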
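System: C. albicans CAF4-2 wild-type biofilms; Medium: RPMI/MOPS medium, pH 7.0; Reagent: Clotrimazole, 50 µg/mL; Times: biofilm formation 24 h, compound exposure 48 h, 37 °C; Detection: 2-h Alamar Blue fluorescence, 535/590 nm excitation/emission; Evaluation: percent inhibition of biofilm viability.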
The depositor's hits bear a star. Not all compounds are listed. The share of hits here may be higher or lower than overall.

SMILES | Biofilm kill mix
COc1cc(CN2CCNC(=O)C2CC(=O)N(C)Cc2cccnc2)cc(OC)c1 (stereo not drawn) | -3.5
COc1ccccc1-c1cn[nH]c1-c1ccc(OCc2ccccc2F)cc1O | 17.5
CC(C)CNC(=O)c1ccccc1NC(=O)CN(c1ccccc1)S(=O)(=O)N(C)C | 8.6
COc1ccc(/C=N/NC(=O)c2ccc(CSc3nc(C)cc(C)n3)cc2)c(OC)c1OC | 10.2
Cc1nnc(SCC(N)=O)n1CCc1ccccc1 | 16.1
O=C(Cn1nc(C(=O)O)c2ccccc2c1=O)c1c[nH]c2ccccc12 | 19.1
Cc1ccc([N+](=O)[O-])c(OCCN2CCC(Cc3ccccc3)CC2)c1 | 11.8
CCN(C1CCS(=O)(=O)C1)S(=O)(=O)c1cccc([N+](=O)[O-])c1 (stereo not drawn) | 29.7
COc1ccc(S(=O)(=O)N(CCC(=O)O)Cc2ccccc2)cc1 | 15.2
CCCC(=O)NC(c1ccc(OCC)cc1)c1ccc(OC)c(OC)c1 (stereo not drawn) | 20.9
Cc1nn(Cc2ccccc2)c(Cl)c1/C=N/NC(=O)CNc1cccc(C(F)(F)F)c1 | 17.0
Cc1ccc(OC(=O)Nc2ccccc2)cc1 | 3.3
N/C(=N\OC(=O)c1cc(Br)ccc1Cl)c1cccnc1 | -21.2
CN1CCN(S(=O)(=O)c2cccc(C(=O)O)c2)CC1 | 15.4
C=CCN1C(=O)/C(=C\c2ccc(OC(=O)c3ccco3)c(OC)c2)SC1=S | 19.5
CC1=CC(C)(C)[N+](C)(C)c2ccc(C)cc21 | 11.4
Cc1ccc(-c2nnc(CCC(=O)NCc3csc(C)n3)o2)s1 | 25.6
CC(=O)c1cccc(NC(=O)/C(=C\c2cccnc2)NC(=O)c2ccco2)c1 | 22.3
CCOc1cc(-c2nc(C)c(C(C)=O)n2O)ccc1OCC(=O)Nc1ccc(F)cc1 | 18.9
CC(C)CCNC(=O)NC(=O)COC(=O)/C=C/c1cc(Br)ccc1F | 1.5
CCOC(=O)C1(C)NC(c2ccco2)C2C(=O)N(c3ccc(C)cc3)C(=O)C21 (stereo not drawn) | 5.3
CCCCC(CC)C(=O)Nc1cccc(SC)c1 (stereo not drawn) | 6.8
CC(Nc1cc(N2CCN(S(=O)(=O)N(C)C)CC2)ccc1[N+](=O)[O-])c1ccccc1 (stereo not drawn) | 3.6
CCOC(=O)/C(=N/Nc1ccc(OC)cc1)Sc1nnc(CCc2ccccc2)n1-c1ccccc1 | 9.0
CNS(=O)(=O)c1ccc(NC(=O)C2CC(=O)N(c3ccc(Cl)cc3)C2)cc1 (stereo not drawn) | 2.9
COC(=O)c1ccc2c(=O)[nH]c(CCl)nc2c1 | 0.2
COc1ccc(-c2ccc3c(N)c(C(=O)NC(C)C)sc3n2)cc1OC | 12.3
COc1ccc(S(=O)(=O)NCc2ccc(C(=O)NCc3cccnc3)cc2)cc1 | 3.2
Cc1ccc(S(=O)(=O)N2CCOCC2)cc1NC(=O)COC(=O)c1ccc2c(c1)OCCO2 | 8.1
CC(C)C(=O)Nc1cccc(-c2nc3ccccc3c(=O)o2)c1 | 15.0
CCCCN(Cc1ccccc1)C(=O)C1CCN(Cc2sccc2C)CC1 | 11.0
COc1ccccc1CC(NC(C)=O)C(=O)N1CCN(C(=O)c2cccs2)CC1 (stereo not drawn) | 7.1
COc1cc(/C=N/Nc2ccc(Cl)cc2)ccc1OC(=O)c1cccs1 | 3.6
CCC(=O)OCC(=O)Nc1cc(S(=O)(=O)N(C)C)ccc1Cl | 5.0
CCCCCCC(=O)N(O)C1CC(=O)N(c2ccc(Cl)cc2)C1=O (stereo not drawn) | 14.4
COc1ccc(CNC(=O)Cn2ncn3c(cc4ccccc43)c2=O)cc1 | 25.8
CCNC(=S)N1CCCC(C(N)=O)C1 (stereo not drawn) | 12.7
Cc1ccc(-c2cc(C(=O)Nc3ccccc3C)c3ccccc3n2)o1 | 16.1
COc1ccc(OCCOC(=O)c2nc3nccc(C)n3n2)cc1 | 3.9
O=C(Cc1ccccc1)N1CCN(c2ncccn2)CC1 | 7.0
O=C(NN1C(=O)C2C3C=CC(O3)C2C1=O)c1cccc(O)c1 (stereo not drawn) | 8.7
CC1CC(C)CN(CCCNC(=O)c2cn(C)c3ccc(S(=O)(=O)N4CCCC4)cc3c2=O)C1 (stereo not drawn) | 23.4
CC(CN(C)Cc1ccccc1)OC(=O)c1ccc(F)cc1 (stereo not drawn) | 16.4
N=c1c2c(ncn1CCCO)Oc1ccc3ccccc3c1C2c1ccccc1 (stereo not drawn) | 7.1
COc1ccc2ccccc2c1/C=N/NC(=O)c1sc(N)c(C#N)c1C | 20.7
COc1ccccc1N(CC(=O)NCC(C)C)S(=O)(=O)c1cccs1 | 2.6
O=C(N/N=C/c1ccc(Br)o1)c1ccc2c(c1)OCCO2 | 16.4
CCNC(=S)NNC(=O)c1csc(CC)c1 | 10.5
CC(=O)NC1(c2ccccc2)CCN(c2cc(C)nc(-c3ccccc3)n2)CC1 | 15.4
CN(C)CCCN(C(=O)c1sc2ccccc2c1Cl)c1nc2ccc(F)cc2s1 | 10.2
Cn1c(=O)c2c(nc3n2CCS3)n(C)c1=O | 11.6
O=C(NCCCN1CCN(Cc2ccccc2)CC1)C1CCN(S(=O)(=O)N2CCC3(CC2)OCCO3)CC1 | 6.9
CCOC(=O)C(NCc1ccc(OC)cc1)(NC(C)=O)C(F)(F)F (stereo not drawn) | 9.3
CCC(=O)Nc1c(C(=O)N2CCN(c3ccccn3)CC2)cnn1-c1ccc(C)cc1 | 9.3
CC(C)c1c(Cl)c(O)c(-c2ccccc2)c(=O)n1-c1ccc(F)cc1 | -0.2
CCOc1ncccc1C(=O)NCc1ccc(C)cc1 | 14.9
CCOc1ccc(NC(=O)CNC(=O)COc2ccccc2)cc1 | 15.1
Cc1ccc(C(=O)Nc2ccc(-c3csc(C)n3)cc2)cc1 | 8.0
C=CCNc1c2c(nc3nnnn13)CCCC2 | 3.8
O=C(CN(c1cccc([N+](=O)[O-])c1)S(=O)(=O)c1ccccc1)N(Cc1ccccc1)Cc1ccccc1 | 14.7

Next part:
SMILES | Biofilm kill mix
Cc1ccc(OCCCn2cc(C#N)c3ccccc32)cc1 | -7.0
Cc1ccc(NC(=O)N2CCCc3ccccc32)cc1 | 17.5
Clc1ccccc1OCc1nn[nH]n1 | 23.9
O=C(OCC(=O)N1CCCCCC1)c1ccc([N+](=O)[O-])cc1Cl | 10.9
O=C(Cn1cncn1)N/N=C/c1ccccc1O | 12.4
CCN(CC)c1cc2nc(C)n(Cc3ccccc3)c(=O)c2cc1NC(=O)C1CC1 | -6.0
Cc1ccc(C)c(OCC(O)CN2CCC(CN3C(=O)c4cccc5cccc(c45)C3=O)CC2)c1 (stereo not drawn) | 5.9
O=C(CCc1nnc(CCCCc2ccccc2)o1)NCCC1CCCCO1 (stereo not drawn) | -5.3
COc1ccc(/C=N\NS(=O)(=O)c2ccc(C)cc2)cc1COc1ccccc1[N+](=O)[O-] | 18.0
Cc1nc2ccc(S(=O)(=O)Nc3cccc(-c4nc5cccnc5s4)c3)cc2s1 | 16.0
COc1cc(NC(=S)NC(=O)c2cc(C)cc(C)c2)ccc1NC(=O)c1cccs1 | 1.1
O=C1CN(C(=O)/C=C/c2ccco2)c2ccccc2N1 | 12.0
CC1CCCC(NC(=O)COC(=O)CCSc2ccccc2)C1C (stereo not drawn) | 14.7
CC(=O)N1C(=S)NC(=O)/C1=C1/C(=O)N(CC(=O)Nc2cccc(C)c2)c2ccccc21 | 13.8
COC(=O)c1nc(N)sc1-c1ccc(Cl)c(Cl)c1 | 24.4
O=C(OCCCN=C1NS(=O)(=O)c2ccccc21)c1cccs1 | -8.4
Cc1nnc(SC2CC(=O)N(c3ccccc3)C2=O)s1 (stereo not drawn) | 9.1
CC(C)NC(=S)N1CCn2c(nc3ccccc32)C1 | 14.4
CCSc1nnc(NC(=O)c2cc(-c3ccc(C)c(C)c3O)n[nH]2)s1 | 13.2
Cc1cc(NC(=O)c2ccco2)ccc1NC(=O)Cc1cccs1 | 11.3
CCOc1ccccc1NC(=O)Nc1ccc(Br)cn1 | 4.6
CCC(C)NC(=O)c1ccc(CSc2nc3ccncc3n2Cc2ccc(F)cc2)cc1 (stereo not drawn) | 1.9
Cc1ccc(NC(=O)C(C)N2C(=O)c3ccccc3C2=O)cc1S(=O)(=O)N1CCOCC1 (stereo not drawn) | 8.3
Cn1c(-c2cccc3ccccc23)n[nH]c1=S | 10.4
O=C(O)c1cc2ccccc2c2cc(Br)ccc12 | 17.5
CCOc1ccc(N2CC(C(=O)NCCN3C(=O)S/C(=C\c4cccnc4)C3=O)CC2=O)cc1 (stereo not drawn) | 3.6
Cc1cc(C)n(CC(=O)N2CCCC(C(=O)c3cccc(OC(C)C)c3)C2)n1 (stereo not drawn) | 0.0
CCCc1c(-c2ccc(O)cc2)nn(-c2ccc(O)cc2)c1-c1ccc(O)cc1 | 15.5
COc1ccc(-c2csc(NC(=O)CSc3nc(C)cs3)n2)cc1 | 4.7
CCN(CCCNC(=O)CCCOc1cc(=O)n(C)c2ccccc12)Cc1ccccc1 | 34.8
CN1CCN(C(=O)c2ccc(CSc3ccc(Cl)cc3)cc2)CC1 | 15.6
CC1(C(=O)N/N=C/c2ccc([N+](=O)[O-])o2)CC1(Br)Br (stereo not drawn) | 17.1
Cc1cccc(N2N=C(C(=O)N3CC(=O)Nc4ccccc43)CCC2=O)c1 | 10.9
Nc1nc2ccccc2n1C(=O)c1ccc(F)cc1 | 5.0
O=C(CCc1ccccc1)Nc1ccccc1 | 16.3
Cc1ccc(C(=O)NCC(=O)OCC(=O)N2CCCc3ccccc32)cc1 | 13.4

A second format for part of the listing above.
canonical_smiles,Biofilm kill mix
CCC(C)NC(=O)c1ccc(CSc2nc3ccncc3n2Cc2ccc(F)cc2)cc1 (stereo not drawn),1.9
CCOc1ncccc1C(=O)NCc1ccc(C)cc1,14.9

Next section.
SMILES | Biofilm kill mix
CCN(CC)S(=O)(=O)c1ccc(C)c(N=C=S)c1 | 14.0
O=C(Nc1ccc(Oc2cccnc2)cc1)c1ccc([N+](=O)[O-])cc1 | 14.5
COC(=O)c1cn(C(=O)c2ccc(C)cc2)c2ccccc12 | 23.2
CCOc1ccc2c(c1)c(N=Nc1cccc(C(=O)O)c1)c(O)n2C | 19.4
Cc1nc(NC(=O)C2CCCC2)sc1Cc1ccc2c(c1)OCO2 | 6.2
O=S(=O)(Nc1ccc(Cc2ccncc2)cc1)c1ccc(Cl)s1 | 13.5
CC(C)(C)C(C(=O)O)N1CCS(=O)(=O)CC1 (stereo not drawn) | 17.5
COc1ccccc1NS(=O)(=O)c1cccc(NC(=O)Nc2ccc(Cl)cc2)c1 | 2.3
O=C(Oc1c(-c2ccccc2)c(=O)n2c3c(cccc13)CC2)c1ccc(Cl)cc1 | 6.1
O=C(NC(=S)NNS(=O)(=O)c1ccc(Cl)cc1)c1cccnc1 | 7.6
CCN1CCN(C(=S)Nc2ccsc2C(=O)OC)CC1 | 12.6
CCNCc1ccc(OCc2cccs2)c(OCC)c1 | 16.9
CC1C2Cn3c(nc4ccccc43)C1N(C(C)C)O2 (stereo not drawn) | 11.1
COc1ccc(NC(=O)Cn2c3ccccc3c3nc4n(c(=O)c32)CCS4)cc1 | -3.3
O=C(CN1CCN(Cc2ccccc2)CC1)N/N=C/C=C/c1ccco1 | 16.8
COc1cccc(NC(=O)C/C(C)=N/NC(=O)c2ccccc2Cl)c1 | 8.2
CC(=O)N1CCC(N(CCN2CCOCC2)C(=S)Nc2ccc(C)cc2C)CC1 | 19.8
Cc1cc(NNC(=O)Nc2cccc(Cl)c2)nc2c1c(C)nn2C | 19.4
CCOC(=O)CSc1ncccn1 | 8.8
COCCCNC(=S)NC(=O)c1ccccc1 | 22.3
COc1ccc(CCNc2c([N+](=O)[O-])ncn2C)cc1OC | 29.6
CC(C)NC(=S)N1CCN(S(C)(=O)=O)CC1 | -4.0
Cc1ccc(S(=O)(=O)Nc2nc(C)c(C(=O)NNS(=O)(=O)c3ccccc3)s2)cc1 | 17.4
COC(=O)c1sc(-c2ccc(C(C)(C)C)cc2)cc1NC(=O)c1ccccc1C(=O)O | 27.1
C=CCN(C(=O)c1cccc(C(F)(F)F)c1)C1(C(=O)Nc2ccccc2)CCN(C(C)C)CC1 | 10.9
NS(=O)(=O)c1ccc(NC(=O)COC(=O)Cc2ccc(Cl)cc2)cc1 | 15.5
CCC1CCCCN1C(=O)c1noc(C(C)C)c1[N+](=O)[O-] (stereo not drawn) | 18.5

In the list so far, these contain a thiophene ring, fused or not:
SMILES | Biofilm kill mix
Cc1ccc(-c2nnc(CCC(=O)NCc3csc(C)n3)o2)s1 | 25.6
COc1ccc(-c2ccc3c(N)c(C(=O)NC(C)C)sc3n2)cc1OC | 12.3
CCCCN(Cc1ccccc1)C(=O)C1CCN(Cc2sccc2C)CC1 | 11.0
COc1ccccc1CC(NC(C)=O)C(=O)N1CCN(C(=O)c2cccs2)CC1 (stereo not drawn) | 7.1
COc1cc(/C=N/Nc2ccc(Cl)cc2)ccc1OC(=O)c1cccs1 | 3.6
COc1ccc2ccccc2c1/C=N/NC(=O)c1sc(N)c(C#N)c1C | 20.7
COc1ccccc1N(CC(=O)NCC(C)C)S(=O)(=O)c1cccs1 | 2.6
CCNC(=S)NNC(=O)c1csc(CC)c1 | 10.5
CN(C)CCCN(C(=O)c1sc2ccccc2c1Cl)c1nc2ccc(F)cc2s1 | 10.2
COc1cc(NC(=S)NC(=O)c2cc(C)cc(C)c2)ccc1NC(=O)c1cccs1 | 1.1
O=C(OCCCN=C1NS(=O)(=O)c2ccccc21)c1cccs1 | -8.4
Cc1cc(NC(=O)c2ccco2)ccc1NC(=O)Cc1cccs1 | 11.3
O=S(=O)(Nc1ccc(Cc2ccncc2)cc1)c1ccc(Cl)s1 | 13.5
CCN1CCN(C(=S)Nc2ccsc2C(=O)OC)CC1 | 12.6
CCNCc1ccc(OCc2cccs2)c(OCC)c1 | 16.9
COC(=O)c1sc(-c2ccc(C(C)(C)C)cc2)cc1NC(=O)c1ccccc1C(=O)O | 27.1

Bioassay records from PubChem.
